# Bioassay records from PubChem BioAssay.
# PV pol inh: poliovirus RdRp elongation inhibitors, primary screen, biochemical, fluorescence polarization, total intensity; Genome polyprotein (Poliovirus type 1 (strain Mahoney)), P03300; poliovirus polymerase elongation; stronger effect = lower value; % elongation, % (compound at 16.7 µg/mL); 150,000 compounds, 0.66% hits; in the data active = % elongation below about 90%; note: some results filed as inactive read as strong as hits
# Target sequence (P03300 1749-2209 limits assumed): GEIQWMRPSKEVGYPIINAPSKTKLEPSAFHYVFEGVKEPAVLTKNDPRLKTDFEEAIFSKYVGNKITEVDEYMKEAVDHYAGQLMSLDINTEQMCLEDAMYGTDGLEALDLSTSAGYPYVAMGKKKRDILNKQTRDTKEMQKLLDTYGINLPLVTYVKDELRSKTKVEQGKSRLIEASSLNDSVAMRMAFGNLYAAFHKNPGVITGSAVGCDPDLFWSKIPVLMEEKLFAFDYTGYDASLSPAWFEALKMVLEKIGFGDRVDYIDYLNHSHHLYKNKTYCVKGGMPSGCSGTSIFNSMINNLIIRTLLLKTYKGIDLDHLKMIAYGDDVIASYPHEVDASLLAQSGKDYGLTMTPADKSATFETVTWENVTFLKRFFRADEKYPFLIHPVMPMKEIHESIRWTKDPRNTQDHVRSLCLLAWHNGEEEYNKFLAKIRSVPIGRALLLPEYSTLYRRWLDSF
# PV pol inh intensity: also measured in PV pol inh; calls as there; % elongation; measured here: total intensity read-out; formula for this scale not given here;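 total fluorescence in place of polarization; lower means less elongation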
# The depositor's hits bear a star.
# The opening 2 compounds as a preview:
SMILES | PV pol inh | PV pol inh intensity
Cc1ccc(C)c(N2CCN(C(=O)Cn3ncc4c(=O)oc5ccc(C)cc5c43)CC2)c1 | 112.0 | 113.0
Cc1nc2c(-c3ccc(F)cc3)c(C)nn2c(C)c1CCC(=O)NCc1ccc(Cl)cc1 | 106.0 | 110.0

# Results, previewed entries included:
SMILES | PV pol inh | PV pol inh intensity
Cc1ccc(C)c(N2CCN(C(=O)Cn3ncc4c(=O)oc5ccc(C)cc5c43)CC2)c1 | 112.0 | 113.0
Cc1nc2c(-c3ccc(F)cc3)c(C)nn2c(C)c1CCC(=O)NCc1ccc(Cl)cc1 | 106.0 | 110.0
COc1ccccc1NC(=O)CCNS(=O)(=O)c1ccc2c(c1)CCN2C(=O)C1CC1 | 107.0 | 102.0
COc1ccccc1N1CCN(c2ncnc3onc(-c4cccc(Cl)c4)c23)CC1 | 110.0 | 108.0
CCOc1ccc(-n2c(=O)c3c(C)c(C)sc3n(CC(=O)c3ccccc3)c2=O)cc1 | 105.0 | 96.0
Cc1oc(-c2ccccc2F)nc1Cn1c(SCc2ccccc2F)nc2ccncc21 | 106.0 | 110.0
COCCc1nn2c(=O)cc(COC(=O)c3ccc(Br)cc3)nc2s1 | 101.0 | 98.0
O=C(Nc1nnc(S(=O)(=O)N2CCN(c3ccc(F)cc3)CC2)s1)c1ccc(Cl)cc1 | 106.0 | 107.0
CN1C(C(=O)NC(C)(C)C)=CC(c2ccc3c(c2)OCO3)=NS1(=O)=O | 118.0 | 114.0
Cc1ccc(CNC(=O)CCS(=O)(=O)c2cc(Br)cc3c2N(C(=O)C2CC2)CC3)cc1 | 111.0 | 110.0
Cc1ccc(CCNC(=O)c2c[nH]c3ccc(S(=O)(=O)Nc4ccc(C)cc4C)cc3c2=O)cc1 | 109.0 | 96.0
Cc1cccc(-c2nc3c4ccccc4n(CC(=O)Nc4cccc(F)c4)c(=O)n3n2)c1 | 106.0 | 112.0
Cc1ncc(CO)c2c1Oc1nc(-c3ccccc3)nc(SCC(=O)N3CCCCC3)c1C2 | 107.0 | 108.0
COc1ccc(C2CC(=O)N(Cc3ccc(F)cc3)c3ccccc3S2)cc1 (stereo not given) | 106.0 | 107.0
COc1ccc(C2CC(=O)c3c([nH]c(C(=O)OC4CCC(C)CC4)c3C)C2)cc1OC (stereo not given) | 106.0 | 110.0
Cc1ccc(O)c(NC(=O)c2nc3nc(C)cc(C(F)F)n3n2)c1 | 108.0 | 108.0
CCOC(=O)c1cc(-c2ccccc2)n(CCC(=O)NCc2ccccc2Cl)c1C | 102.0 | 109.0
Cc1nc(-c2ccc(S(=O)(=O)N(Cc3ccccc3)C(C)C)cc2)co1 | 112.0 | 110.0
CCn1c(CN2CCCCC2)nc2cc(NC(=O)COc3ccc(C(C)(C)C)cc3)ccc21 | 107.0 | 103.0
Cn1cc(C(=O)Nc2ccc(C#N)cc2)c2ccccc2c1=O | 103.0 | 107.0
COc1ccc(Cc2nc3ccc(C(=O)NCCc4ccccc4)cc3o2)cc1 | 103.0 | 105.0
COCCCNC(=O)c1cc2cc(S(=O)(=O)N3CCCCC3)ccc2n1C | 105.0 | 108.0
COC(=O)c1cc2occc2n1Cc1nc(-c2cccc(Cl)c2)oc1C | 111.0 | 114.0
O=C(Nc1ccc(F)cc1)C1CCN(c2nc3ccccc3nc2C(F)(F)F)CC1 | 112.0 | 100.0

# Laid out differently: four of the compounds above
COc1ccc(C2CC(=O)N(Cc3ccc(F)cc3)c3ccccc3S2)cc1 (stereo not given)
  PV pol inh = 106.0	PV pol inh intensity = 107.0

COc1ccc(C2CC(=O)c3c([nH]c(C(=O)OC4CCC(C)CC4)c3C)C2)cc1OC (stereo not given)
  PV pol inh = 106.0	PV pol inh intensity = 110.0

Cc1ccc(O)c(NC(=O)c2nc3nc(C)cc(C(F)F)n3n2)c1
  PV pol inh = 108.0	PV pol inh intensity = 108.0

CCOC(=O)c1cc(-c2ccccc2)n(CCC(=O)NCc2ccccc2Cl)c1C
  PV pol inh = 102.0	PV pol inh intensity = 109.0

# (continued)
SMILES | PV pol inh | PV pol inh intensity
COc1ccccc1C(=O)Nc1ccc(C(=O)OCc2cc(=O)n3ccsc3n2)cc1 | 103.0 | 106.0
CCOc1ccccc1NC(=O)c1cccn(Cc2ccccc2C)c1=O | 103.0 | 109.0
COc1ccc(NC(=O)CN2C(=O)CN=C(c3ccccc3)c3ccccc32)c(OC)c1 | 105.0 | 114.0
CC(=O)N1CCc2cc(CNS(=O)(=O)c3ccc(Br)s3)ccc21 | 111.0 | 113.0
Cn1c(=O)cc(OCCCC(=O)Nc2ccc(F)cc2)c2ccccc21 | 101.0 | 99.0
O=C1CN(C(=O)Nc2ccccc2C(F)(F)F)C(c2ccccc2)c2c(sc3c2CCCC3)N1 (stereo not given) | 102.0 | 109.0
O=C(NCCO)C(=O)Nc1c2c(nn1-c1ccc(F)cc1)CSC2 | 110.0 | 106.0
Cc1c(-c2nc(-c3ccc4c(c3)OCO4)no2)nnn1-c1cccc(C(F)(F)F)c1 | 108.0 | 113.0
CCOCCCNC(=O)C(Cc1ccccc1)NS(=O)(=O)c1ccc2c(c1)c(=O)n(C)c(=O)n2C (stereo not given) | 102.0 | 105.0
CCOc1ccc(CCNC(=O)Cn2c(-c3cccs3)cc3ccccc32)cc1OCC | 107.0 | 112.0
Cc1cccc(C(=O)N2CCc3cc(CNC(=O)CCc4ccccc4)ccc32)c1 | 106.0 | 109.0
COc1cc2nc(SCc3ccc(F)cc3)n3nc(CCn4c(C)nc5ccccc54)nc3c2cc1OC | 106.0 | 107.0
Cc1ccc(S(=O)(=O)Nc2c(C)nc3nc(C)[nH]n3c2=O)c(C)c1 | 99.0 | 97.0
CC1CCN(c2nc3ccc(C(=O)N4CCN(c5ccccc5)CC4)cc3s2)CC1 | 109.0 | 105.0
Cc1ccc(-c2noc(-c3cccnc3NCc3ccc(Cl)cc3)n2)cc1 | 111.0 | 115.0
CCc1nc2nc(C)cc(Nc3ccc(OC)cc3OC)n2n1 | 102.0 | 100.0
Cc1cccc(CNC(=O)c2ccc3c(c2)c(C)c(C)n3Cc2ccccc2)c1 | 109.0 | 107.0
O=C(CN1C(=O)CSc2ccc(S(=O)(=O)N3CCCC3)cc21)Nc1cccc(Cl)c1 | 109.0 | 113.0
COc1cccc(CNC(=O)C(Cc2ccccc2)NS(=O)(=O)c2ccc3c(c2)oc(=O)n3C)c1 (stereo not given) | 106.0 | 106.0
CCOc1ccc(N(C)S(=O)(=O)c2cc(-c3cnc(C)o3)ccc2OC)cc1 | 104.0 | 106.0
Cc1c(C(=O)NCc2ccccc2Cl)sc2nc3n(c(=O)c12)CCC3 | 106.0 | 106.0
Cc1ccccc1NC(=O)c1c(C)oc2ccc(O)c(CN3CCC(C)CC3)c12 | 106.0 | 108.0
Cc1cc(OCCn2cc(C(=O)c3cccs3)c3ccccc32)ccc1Cl | 104.0 | 98.0
CC(=O)c1ccc(NC(=O)CSc2cn(CC(=O)N(C(C)C)C(C)C)c3ccccc23)cc1 | 114.0 | 116.0

# Four of these compounds in another layout.
Cc1cccc(CNC(=O)c2ccc3c(c2)c(C)c(C)n3Cc2ccccc2)c1
- PV pol inh = 109.0
- PV pol inh intensity = 107.0

Cc1ccc(-c2noc(-c3cccnc3NCc3ccc(Cl)cc3)n2)cc1
- PV pol inh = 111.0
- PV pol inh intensity = 115.0

Cc1c(C(=O)NCc2ccccc2Cl)sc2nc3n(c(=O)c12)CCC3
- PV pol inh = 106.0
- PV pol inh intensity = 106.0

CC(=O)c1ccc(NC(=O)CSc2cn(CC(=O)N(C(C)C)C(C)C)c3ccccc23)cc1
- PV pol inh = 114.0
- PV pol inh intensity = 116.0

# Next structures:
# Screens in order: PV pol inh, PV pol inh intensity
> Cc1nc2c(C(=O)NCCC(C)C)cnn2c(C)c1Cc1c(F)cccc1Cl
 : 111.0, 110.0
> O=C(NCc1ccc2c(c1)CCN2C(=O)c1ccc(F)cc1)c1ccco1
 : 107.0, 98.0
> Cc1cc(C)c(NC(=O)c2cc(S(=O)(=O)N3CCN(c4ccccc4F)CC3)ccc2F)c(C)c1
 : 115.0, 110.0
> COc1ccc2c(Sc3ccccc3)c(C(=O)NCCCN3CCCCC3)[nH]c2c1
 : 106.0, 106.0
> CCc1ccccc1Nc1ncnc2c1cnn2-c1ccc(Cl)cc1
 : 104.0, 111.0
> COc1cccc(N2CCN(S(=O)(=O)c3ccc4[nH]c5c(c4c3)CCCC5)CC2)c1
 : 111.0, 112.0
> O=C(Nc1ccccc1C(=O)OCc1cc(=O)n2c3c(sc2n1)CCCC3)c1ccccc1
 : 110.0, 110.0
> Cc1nn(C)c2c1c(-c1ccccc1)cc(=O)n2C(C)C(=O)NCc1ccc(F)cc1 (stereo not given)
 : 104.0, 105.0
> O=C(CSc1nc2ccsc2c(=O)n1Cc1ccccc1F)NCc1ccccc1Cl
 : 110.0, 102.0
> COc1cc(-c2nnc(SCC(=O)Nc3cccc(C#N)c3)o2)cc(OC)c1OC
 : 108.0, 109.0
> COc1ccc(C2NC(=O)N(C)C3=C2C(=O)N(c2ccc(F)cc2)C3)cc1 (stereo not given)
 : 106.0, 108.0
> Cc1ccc(-c2nc(C)c(CCNC(=O)c3cccs3)s2)cc1
 : 107.0, 100.0
> O=C(NCc1ccccc1F)C(=O)NCC(c1ccco1)S(=O)(=O)c1ccccc1 (stereo not given)
 : 111.0, 111.0
> COC(=O)c1ccccc1NC(=O)c1nc(SCc2ccccc2C)ncc1Cl
 : 102.0, 112.0
> CCCCC(CC)CNC(=O)c1ccc2c(=O)n(CCOC)c(=O)[nH]c2c1 (stereo not given)
 : 103.0, 104.0
> CCOC(=O)c1cccc(NC(=O)CC(c2cc(OC)c(OC)c(OC)c2)N2Cc3ccccc3C2=O)c1 (stereo not given)
 : 110.0, 113.0
> O=C(NCc1ccc(Cl)cc1)c1cc(S(=O)(=O)N2CCCCC2)c[nH]1
 : 107.0, 99.0
> Cc1ccc(NC(=O)Cn2nc(-c3ccc(F)cc3)c3cnc4ccc(C)cc4c32)cc1
 : 112.0, 104.0
> Cc1ccc(NC(=O)CSc2nnc(-c3cc4occc4n3C)n2-c2ccccc2C)cc1F
 : 110.0, 113.0
> COc1ccccc1N1CCN(C(=O)c2cc(S(=O)(=O)N3CCC(C)CC3)cn2C)CC1
 : 111.0, 108.0
> O=C(CCCc1nc(-c2ccc(Cl)cc2)no1)NCc1ccco1
 : 108.0, 114.0
> CNC(=O)c1ccc(Nc2nnc(-c3ccc(C)c(S(=O)(=O)N4CCCCC4)c3)c3ccccc23)cc1
 : 101.0, 102.0
> CCn1nnc2cc(C(=O)Nc3cccc(Cl)c3)ccc21
 : 112.0, 109.0
> CCOc1ccc(NC(=O)CCc2c(C)nc3nc(C)nn3c2C)cc1
 : 111.0, 107.0
> O=C(c1ccc2c(c1)N(Cc1ccc(Cl)cc1)C(=O)c1ccccc1S2(=O)=O)N1CCCC1
 : 105.0, 105.0
> Cc1ccc(C)c(NC(=O)Cn2c(=O)n(Cc3cccs3)c(=O)c3cccnc32)c1
 : 103.0, 108.0
> Cn1c2ccccc2c2cnn(CC(=O)NCCCN3CCN(c4ccccc4F)CC3)c(=O)c21
 : 105.0, 107.0
> COc1cc(NC(=O)CC2C(=O)OCCN2Cc2ccccc2)cc(OC)c1 (stereo not given)
 : 101.0, 99.0
> O=C(NC1CCCCCC1)C1c2ccccc2C(=O)N1Cc1ccccc1Cl (stereo not given)
 : 108.0, 112.0
> CC(C)c1ccc(CNC(=O)c2ccc(N3CCCC3)c(NC(=O)NCc3ccc(F)cc3)c2)cc1
 : 107.0, 113.0
> COCCCNC(=O)c1cn(CCOC)c(=O)c2c1c1ccccc1n2C
 : 108.0, 110.0
> Cc1ccc(S(=O)(=O)NCC2CCC(C(=O)NCCc3ccccc3)CC2)cc1 (stereo not given)
 : 99.0, 100.0
> Cc1ccccc1C(=O)Nc1ccc(NC(=O)c2cccs2)cc1
 : 105.0, 104.0
> CCOC(=O)c1c(NC(=O)CSc2cn(CCNC(=O)c3ccc(OC)cc3)c3ccccc23)sc2c1CCC2
 : 106.0, 108.0
> O=C(Cn1c(=O)nc(-c2ccccc2)c2ccccc21)NCCCc1ccccc1
 : 108.0, 113.0
> CCOC(=O)CC(NC(=O)Cn1nnc(-c2ccc(C(F)(F)F)cc2)n1)c1ccccc1Cl (stereo not given)
 : 97.0, 101.0
> Cc1cccc(CCn2c(=O)c3ccccc3n(CC(=O)Nc3ccccc3F)c2=O)c1
 : 108.0, 111.0
> O=C(NCCc1csc2nc(-c3ccccc3F)nn12)C(=O)Nc1cc(F)ccc1F
 : 111.0, 114.0
> CCOc1ccc(N2C(=O)c3n[nH]c(-c4cccs4)c3C2c2cccc(F)c2)cc1 (stereo not given)
 : 106.0, 111.0
> Cc1ccc(Cn2c(C(=O)O)c(CNCc3ccc(OC(C)C)cc3)c3ccc(C)cc32)cc1
 : 109.0, 113.0
> CC(=O)c1cccc(NC(=O)C2=CC(c3ccc(F)cc3)=NS(=O)(=O)N2C)c1
 : 112.0, 109.0

# Record cards, from the list above. Order of values: PV pol inh | PV pol inh intensity
# Entry for COC(=O)c1ccccc1NC(=O)c1nc(SCc2ccccc2C)ncc1Cl → 102.0 | 112.0
# Entry for CCOc1ccc(NC(=O)CCc2c(C)nc3nc(C)nn3c2C)cc1 → 111.0 | 107.0
# Entry for Cc1cccc(C(=O)N2CCc3cc(CNC(=O)CCc4ccccc4)ccc32)c1 → 106.0 | 109.0
# Entry for COc1ccc2c(Sc3ccccc3)c(C(=O)NCCCN3CCCCC3)[nH]c2c1 → 106.0 | 106.0

# Not all compounds are listed (hit frequency here may not be typical).
